Bioassay records from PubChem.
Beta cell apopt – blocks beta cell apoptosis; AID 435005; protection from apoptosis, % (no concentration beside the values); INS-1E cytokine-induced death, ATP luminescence, 48 h; percent of positive-control rescue, neutral wells zero; 300,000 tested, 0.8% active;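 active = all replicates at 75% or more, or half of them and the mean; inconclusive = half reach 75% but not the mean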;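 note: 0% = cytokine-treated negative control wells and 100% = positive control rescue; higher means more ATP so stronger rescue from cytokine killing; wells of about 40 µL received 100 nL stock; the first replicate is given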
Calb FLC – affects C. albicans growth with fluconazole; C. albicans CaCi-2 (fluconazole-resistant clinical isolate) + fluconazole, Alamar Blue growth, 48 h; growth inhibition, % (concentration not given with the values); 300,000 tested, 0.57% active; AID 1979;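 active = most replicates above 75%; inconclusive = exactly half above 75%; inactive = most below 75%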;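 note: all wells also contain fluconazole at 8 µg/ml as a sub-toxic cotreatment; 0% = median of DMSO wells and 100% = median of geldanamycin control wells; wells of about 8 µL received 7.5 nL stock; the first replicate is given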
Vif A3G – inhibitors of Vif binding to APOBEC3G peptide, primary screen, biochemical, TR-FRET, GST-Vif 1-94, biotin-A3G peptide, dose response retest (AID 1117319) | inhibition, %; hits with a dose series show IC50 in µM | 260,000 tested, 0.57% active | TR-FRET GST-Vif / biotin-A3G peptide binding; higher % means a stronger effect; test concentration not given here; strong numbers were not always called active;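 active = above the screen mean plus three standard deviations and confirmed in dose response; inconclusive = results disagree or hit not tested in dose response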;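 note: Vif residues 1-94 fused to GST binding biotinylated APOBEC3G peptide 110-148; 0% = full assay without inhibitor and 100% = GST in place of GST-Vif; retest series ran down from 100 µM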
MLL AF4-AF9 inh – inhibitors of human MLL-AF4/AF9 interaction | P42568 | AlphaScreen, biotin-AF4 peptide binding to FLAG-AF9 | inhibition, % at 10 µM | 350,000 tested, 0.47% active | AID 651704;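 active = every replicate reaching a set inhibition limit, whatever the replicate mean, cut at about 25% in these data; inconclusive = mean inhibition reaches that limit but some replicates miss it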;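 note: 0% = plate neutral control median and 100% = total signal loss; the record names both 10 and 1 µM as test concentration; the first replicate is given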
Target sequence (P42568 whole entry, looked up): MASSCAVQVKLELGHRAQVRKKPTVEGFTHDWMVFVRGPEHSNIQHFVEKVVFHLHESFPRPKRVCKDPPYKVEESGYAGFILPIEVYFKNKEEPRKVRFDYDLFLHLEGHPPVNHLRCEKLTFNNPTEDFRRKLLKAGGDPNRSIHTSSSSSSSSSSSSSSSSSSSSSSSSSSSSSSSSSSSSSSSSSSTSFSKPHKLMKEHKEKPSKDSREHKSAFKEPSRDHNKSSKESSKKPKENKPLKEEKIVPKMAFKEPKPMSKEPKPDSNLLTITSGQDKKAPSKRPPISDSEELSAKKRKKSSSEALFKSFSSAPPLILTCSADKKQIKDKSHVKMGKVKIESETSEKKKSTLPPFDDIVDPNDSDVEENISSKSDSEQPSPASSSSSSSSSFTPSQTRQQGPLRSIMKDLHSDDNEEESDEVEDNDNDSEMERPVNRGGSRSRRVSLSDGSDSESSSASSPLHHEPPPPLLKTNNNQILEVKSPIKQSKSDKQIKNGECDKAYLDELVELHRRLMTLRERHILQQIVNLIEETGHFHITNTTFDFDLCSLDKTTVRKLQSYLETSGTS
RanGTP-Imp inh – disruptors of Ran-importin-beta complex formation – biochemical, FRET, CFP-Ran, YFP-importin-beta, homogeneous, primary screen. inhibition, % (concentration not given with the values). 300,000 tested, 1.1% active. cell-free CFP-Ran/YFP-importin-beta FRET ratio;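 active = most replicates above 15%; inconclusive = exactly half above 15%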;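 note: 0% = DMSO wells and 100% = Ran loaded with GDP instead of GTP; wells of about 40 µL received 100 nL stock; the first replicate is given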
Ecoli rRNA inh – inhibits bacterial ribosomal RNA function over humanized ribosomes; GFP signal change (wild-type ribosome), % (test concentration not listed); E. coli WT GFP vs humanized-ribosome RFP mutants, fluorescence, 24 h; hits give low values; DMSO median 0, no signal -100; 350,000 tested, 1.6% active; AID 720706;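 active = significant combined selectivity score with lowered wild-type GFP, culture density cut under 30%, mutant RFP and density less affected; inactive = any of these conditions unmet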; note: one replicate is shown; some compounds called inactive have numbers as strong as hits
T cruzi inh – T. cruzi replication inhibition | T. cruzi beta-gal in NIH3T3, luminescence, 90 h | inhibition, % (concentration not given with the values) | 300,000 tested, 1.4% active;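 active = mean inhibition across valid replicates above about 55%, limit read from the data; inconclusive = mean below that limit but half or more replicates reach it; inactive = mean below it, under half of replicates reach it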;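 note: signal also drops with host cell toxicity which is not excluded here; 0% = plate median of DMSO wells and 100% = zero luminescence signal; higher percent means less beta-gal luminescence so fewer parasites; stock transfer was 50 nL into about 50 µL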
A1 inh – inhibitors of the anti-apoptotic protein A1, read as caspase activation; 330,000 tested, 0.066% active; caspase activation, % (test concentration not listed); MEF A1-2A-BIM cells, Caspase-Glo 3/7 luminescence, 3 h; percent of clofoctol response, vehicle zero;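 active = over half of replicate activation scores above 10%, or exactly half above 10 with the replicate mean above 10; inconclusive = replicate mean below 10 yet half the replicates above 10; inactive = over half of replicates below 10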;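 note: wells of about 30 µL received 50 nL stock; many hits fall short of the cut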
Ecoli rRNA inh OD600 – recorded beside Ecoli rRNA inh, whose call it bears; OD600 change, %; measured here: OD600 growth;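 optical density of the mix in the first replicate; 0 = DMSO median and -100 = no signal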
Ecoli rRNA inh RFP – recorded beside Ecoli rRNA inh, whose call it bears; RFP signal change, %; measured here: RFP humanized mutant strains;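 first replicate; 0 = DMSO median and -100 = no signal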
* = called active by the depositor; u = inconclusive; x = no result given; & = joins results of further samples.

SMILES	Beta cell apopt	Calb FLC	Vif A3G	MLL AF4-AF9 inh	RanGTP-Imp inh	Ecoli rRNA inh	Ecoli rRNA inh OD600	Ecoli rRNA inh RFP	T cruzi inh	A1 inh
Cc1cc(Br)c(NC(=O)CN(C)CCOc2ccccc2)c(Br)c1	-1	14	-8%	-7.0	0.0	-55	-78	-20	50	-0.1
O=C(Nc1ccc(N2CCOCC2)c(Cl)c1)C1CCCCC1	-7	-18	7%	x	5.9	x	x	x	12	-0.4
CCCCCCCCC(=O)N1CCN(c2cc3c(cc2F)c(=O)c(C(=O)O)cn3CC)CC1	3	-3	-7%	6.4	u	-4	3	-3.4	-12	-0.2
CCCCN(C)CCCNC(=O)c1ccc2c(c1)NC(=O)C(N1CCOCC1)S2 (stereo unspecified)	-2	-13	2%	x	-2.0	x	x	x	21	0.6
CCOC(=O)C1CCN(C(=O)Cn2nc(C)n3cccc3c2=O)CC1	3	-4	x	-0.9	-0.3	15	21	0.8	-7	0.1
COc1ccc(CCNC(=O)CCc2cc(OC)c(OC)c(OC)c2)cc1	-9	-1	-4%	-37	-2.6	-1	3	-1.9	-8	-0.7
O=C(c1cc(-c2ccc(F)cc2)on1)N1CCCc2ccccc21	2	11	-3%	0.9	6.2	5	-17	-6.1	-13	-0.8
Cc1nc2ccccn2c1C(=O)NCC(C)C	-8	-4	-11%	-6.4	-2.0	1	3	-1.9	-11	0.7
CC(=O)N(CC(=O)Nc1sc(C)c(C)c1C(N)=O)Cc1ccccc1	2	3	x	1.1	8.1	7	0	-2.0	-5	0.6
CC(=O)Nc1ccccc1OC(=O)N1CCOCC1	3	-1	3%	x	-2.7	x	x	x	-4	0.0
O=C1Cc2ccccc2Sc2ccc(Cl)cc21	-7	20	2%	x	-0.8	x	x	x	6	-0.3
O=C(c1cccc(C(=O)N2CCN(c3ncccn3)CC2)c1)N1CCN(c2ncccn2)CC1	0	0	17%	x	-3.0	x	x	x	-26	-0.6
COc1ccc(C(=O)c2ccc([N+](=O)[O-])cc2)cc1S(=O)(=O)N1CCC(C(=O)O)CC1	-2	2	x	13	-3.5	10	12	-0.6	-3	0.5
CCN1CCc2nc3ccccc3c(C(=O)Nc3ccc(F)cc3)c2C1	-3	-5	-3%	2.7	0.1	3	5	-4.9	-1	0.6
Cc1cc(OCC[N+]2(C)CCCCC2)nc2ccccc12	2	-6	-2%	x	-0.7	x	x	x	-14	-0.5
O=C(c1ccc(S(=O)(=O)N2CCCC2)cc1)N(c1ccccc1)C1C=CS(=O)(=O)C1 (stereo unspecified)	8	-2	x	-2.1	1.7	2	6	-0.7	-5	-0.1
Cc1cccc(NC(=O)COC(=O)c2ccccc2-c2nc3ccccc3s2)c1C	-11	11	x	-2.6	-0.1	x	x	x	-2	0.6
CCn1c(C)cc2c(c1=O)C(c1ccncc1)C(C#N)=C(N)O2 (stereo unspecified)	5	-1	0%	x	5.1	x	x	x	-17	2.1
Cc1ccc(NC(=O)CN(C)C(=O)c2ccc3[nH]c4c(c3c2)CC(C)CC4)cc1 (stereo unspecified)	-4	x	-9%	1.2	x	-10	-12	6.2	x	0.2
O=C1NC(c2cccc(Cl)c2)Oc2ccccc21 (stereo unspecified)	-2	-10	0%	-1.0	-0.4	5	2	-2.0	3	-0.2
COCC(=O)Nc1cc(C)c2c(=O)oc3ccccc3c2n1	x	-2	u	0.5	3.0	0	2	2.9	3	0.6
COc1ccc(OC)c(NC(=O)COC(=O)COc2c(Cl)cc(Cl)c3ccc(C)nc23)c1	-6	37	x	4.9	5.8	9	14	2.9	0	-0.4
CC(C)(C)N1C(=O)c2ccc(C(=O)Nc3nccs3)cc2C1=O	-5	-8	-4%	x	-2.2	x	x	x	4	-1.7
O=C(NCCCN1CCCC1=O)c1cc(-c2cccnc2)nc2ccc(Cl)cc12	2	14	0%	-3.2	-2.1	24	10	2.5	7	1.2
CC(C)CNC(=S)NC1CC2CCCC(C1)N2Cc1cccs1 (stereo unspecified)	-2	-24	1%	2.7	-1.5	4	-6	-2.6	-5	-0.6
O=C(COc1ccc2c(-c3ccccc3)cc(=O)oc2c1)N[C@@H](Cc1c[nH]c2ccc(O)cc12)C(=O)O	1	0	x	-3.5	u	x	x	x	8	-0.4
CCOc1ccccc1N1CCN(C(=O)c2c(-c3c(F)cccc3Cl)noc2C)CC1	5	-23	-5%	2.2	1.3	6	11	0.2	20	-1.1
CCCNC(=O)C(Cc1cccc(OC)c1)NC(=O)c1ccc(C#N)cc1 (stereo unspecified)	-7	x	x	-1.6	x	11	6	-6.1	x	0.2
C=CCN(c1ccc(C(=O)NCCc2ccccc2)cc1)S(C)(=O)=O	x	-7	2%	x	-1.6	x	x	x	4	x
C=CCN(c1ccccc1)S(=O)(=O)c1cccc(C(=O)OCC(=O)NCCOC)c1	1	-1	x	10	-2.4	-4	-6	-5.4	-6	-0.4
CCN(CC)CCN1C(=O)C(=O)/C(=C(/O)c2c(C)[nH]c(C(=O)OC)c2C)C1c1cccs1 (stereo unspecified)	-12	-4	-1%	x	1.2	x	x	x	-6	0.5
CC(=O)c1cccc(Nc2nc(-c3ccccc3)cs2)c1	-3	-4	x	0.7	-1.0	6	20	5.1	11	-7.6
Cc1cc(NC(=O)c2cc3n(n2)C(C(F)(F)F)CC(c2ccc(Cl)c(Cl)c2)N3)no1 (stereo unspecified)	0	10	5%&-7%	x	-1.2	x	x	x	-7	0.4
COc1ccc(/C(O)=C2\C(=O)C(=O)N(CC3CCCO3)C2c2cc(OC)ccc2OC)cc1 (stereo unspecified)	0	u	-4%	-4.7	-0.2	4	-4	-3.1	-16	0.2
Cc1cc(=O)oc(C)c1C(=O)Nc1cccc(F)c1	-2	-2	-5%	0.1	1.4	6	6	0.8	-5	0.1
CC(c1cccs1)N(C)Cc1nc(CCc2ccccc2)no1 (stereo unspecified)	0	23	3%	-6.6	3.6	-4	-3	-0.5	0	-2.1
C=CCc1cccc2cc(C(=O)Nc3ccc(CC(=O)O)cc3)c(=O)oc12	-4	11	-2%	3.8	6.8	-7	-10	-4.2	4	0.5
O=C(N/N=C/c1cccc(F)c1)c1cc(-c2ccco2)nc2ccccc12	x	3	u	x	-3.9	x	x	x	-17	-0.3
O=C(c1cccnc1)c1ncc(C(F)(F)F)cc1Cl	-10	-3	-1%	-0.9	-1.2	3	9	-1.3	-10	0.7
O=C(Nc1ccc(Cl)cn1)c1cccc(S(=O)(=O)N2CCCCC2)c1	x	-5	x	-1.3	-5.4	-11	-21	-1.5	3	x
COC(=O)c1ccc(NC(=O)C2CCCN2S(=O)(=O)c2ccc(C)cc2)cc1 (stereo unspecified)	1	4	24%	-8.9	-1.9	-6	-4	1.5	34	0.3
CC(=O)Nc1ccc(NC(=O)CNC(=O)COc2ccccc2)cc1	-3	-9	-15%	1.1	-1.0	9	8	0.3	-14	-0.5
O=C1NC(Nc2ccccn2)(C(F)(F)F)C(=O)N1c1ccc(F)cc1 (stereo unspecified)	-3	-3	0%	0.6	0.9	6	8	9.7	-2	-1.6
COCCNc1nc(C(C)(C)C)nc2c1nnn2Cc1ccccc1Cl	x	-8	-8%&-11%	x	9.3	x	x	x	26	x
Cn1c(N)c(C(=O)COC(=O)CCc2c[nH]c3ccccc23)c(=O)n(C)c1=O	-9	4	19%	x	-0.8	x	x	x	10	-0.8
O=C(Nc1ccc2[nH]c(=O)[nH]c2c1)c1ccc(Br)o1	4	-7	x	-0.1	-0.5	7	7	-1.5	-1	-0.2
O=C(CN1C(=O)NC2(CCc3ccccc32)C1=O)c1ccc(Br)s1 (stereo unspecified)	-1	x	-25%	2.7	x	-30*	-19*	-4.3*	x	0.2
Cc1cc(Cl)ccc1NC(=O)/C=N/O	-1	-5	0%	3.8	5.9	-18	-12	-3.3	-13	0.8
CCCN(CCC)C(=O)Nc1cc(Cl)ccc1OC	-5	-15	u	-1.8	-9.4	-7	0	-1.8	-1	0.8
O=C1CN(C(=O)COc2ccc(Br)cc2F)c2ccccc2N1	-1	6	23%	x	-2.1	x	x	x	-17	0.3

Additional compounds:
SMILES	Beta cell apopt	Calb FLC	Vif A3G	MLL AF4-AF9 inh	RanGTP-Imp inh	Ecoli rRNA inh	Ecoli rRNA inh OD600	Ecoli rRNA inh RFP	T cruzi inh	A1 inh
CCOC(=O)COn1c(=O)c(-c2ccc(OC)cc2)[n+]([O-])c2ccccc21	0	4	-3%	-0.6	-3.5	9	12	-1.2	-6	1.5
O=C(NCCc1ccccc1)c1ccc2c(c1)S(=O)(=O)c1cc(Cl)ccc1C2=O	0	x	x	-2.5	x	-10	-12	0.4	x	0.0
CC(=O)NC1=C(C#N)C(c2ccccc2)c2c(ccc3ccccc23)O1 (stereo unspecified)	-5	-1	5%	x	0.1	x	x	x	-21	1.1
Cc1cc(S(=O)(=O)N2CCN(c3ccc(F)cc3)CC2)c(C)s1	0	-2	-4%	-1.6	5.0	1	-20	-3.6	24	0.1
COc1c(C)cc(C(=O)C2CCCN(C(=O)c3cc(C)nc(C)n3)C2)cc1C (stereo unspecified)	7	-1	-13%	0.4	0.0	-11	-16	-0.4	12	-0.2
CCOC(=O)c1cccc(NC(=O)C2CCN(S(=O)(=O)c3cnc[nH]3)CC2)c1	-3	-1	-4%	4.8	-5.6	0	8	-0.7	-2	0.2
COc1ccc(NC(=O)CN2C(=O)NC3(CCCCC3C)C2=O)cc1OC (stereo unspecified)	-7	x	-9%	1.1	x	3	12	-2.2	x	0.2
CN1C(C(=O)NCc2cccs2)=CC(c2ccc(F)cc2)=NS1(=O)=O	-7	3	x	2.4	0.5	-3	-15	-3.5	4	0.0
CC1(C)NC(=O)N(CC(O)COc2ccccc2C(=O)N2CCCCC2)C1=O (stereo unspecified)	-4	4	8%	x	1.2	x	x	x	-6	-0.5
O=C(Nc1ccc(NC(=O)c2ccccc2O)cc1)Nc1ccc(F)cc1F	-8	2	-7%	0.2	-1.1	1	1	0.2	2	-0.2
COC(=O)C(NC(=O)CCc1c(C)nc2c(c(C)nn2-c2ccccc2)c1C)C(C)C (stereo unspecified)	-8	8	-3%	-2.3	5.5	9	4	0.1	3	0.3
CCOC(=O)N1CCC(NC(=O)CC(NS(=O)(=O)c2ccc(C)cc2)c2ccco2)CC1 (stereo unspecified)	-5	-3	5%	x	1.6	x	x	x	1	0.0
COc1ccc(-c2[nH]ncc2C=O)cc1	-3	-1	-3%	x	3.8	x	x	x	0	-0.4
O=C(O)c1cccc(N2C(=O)C3C4C=CC(C4=C(c4ccccc4)c4ccccc4)C3C2=O)c1 (stereo unspecified)	0	12	x	-1.9	-2.5	-16	-21	-1.4	-10	1.9
Cc1cc(C)c(C(=O)COC(=O)c2cc([N+](=O)[O-])ccc2N2CCOCC2)cc1C	1	10	x	6.6	-0.3	15	7	1.3	38	-1.1

Only part of the results is shown; count on the stated rates, not on these rows.
